Compound activity deposited in PubChem by several laboratories.
PKD1 inh: inhibitors of human PKD1 kinase, biochemical, fluorescence polarization; Serine/threonine-protein kinase D1 (Homo sapiens), Q15139; PKD1 kinase fluorescence polarization assay; AID 797, 2007; actives 0.056% (n = 200,000); inhibition, %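 (about 10 µM by stock and volumes)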;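 active = inhibition of 50% or more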;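 note: controls were vehicle for no effect and a reference inhibitor for full effect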
GALR2 ag: GALR2 receptor agonists, primary screen, cell-based; activation, %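 (tested at 5 µM)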; AID 803, 2007; actives 0.48% (n = 140,000); Galanin receptor type 2 (Homo sapiens), O43603; GALR2-expressing cells, agonist activation read-out;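 active = above mean plus 3 SD of all compounds, about 5% in these data, not always enough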;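 note: 0% = vehicle buffer wells and 100% = reference agonist at full effect; tested in CHO reporter cells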
Target sequence (O43603 whole entry, looked up): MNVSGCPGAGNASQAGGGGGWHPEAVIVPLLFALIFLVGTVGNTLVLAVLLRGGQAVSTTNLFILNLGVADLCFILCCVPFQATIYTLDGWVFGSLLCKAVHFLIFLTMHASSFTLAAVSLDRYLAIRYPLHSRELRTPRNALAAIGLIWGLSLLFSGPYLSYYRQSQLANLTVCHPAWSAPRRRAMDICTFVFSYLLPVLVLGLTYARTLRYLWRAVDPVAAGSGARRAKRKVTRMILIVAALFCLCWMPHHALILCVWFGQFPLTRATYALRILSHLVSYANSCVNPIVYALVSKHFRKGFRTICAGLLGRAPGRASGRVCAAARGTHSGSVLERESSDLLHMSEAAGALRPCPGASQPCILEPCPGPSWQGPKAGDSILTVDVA
HSV augment: enhancers of HSV replication in host cells, fold increase, host cell viability. HSV replication augmentation in cells. maximum fold increase. AID 1956, 2009. actives 0.005% (n = 220,000);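 active = peak rise of 1.5-fold or more in the series; tested in PC3 cells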;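 note: first round at 10 µM; read as green reporter fluorescence; hits show the peak of a series up to 25 µM; 1 = signal of infected wells without compound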
INS promoter inh: inhibitors of insulin promoter-driven GFP, primary screen, imaging, TRM-6 cells (human fetal islet line), eGFP reporter, cell count; reporter expression induced with tamoxifen; inhibition, % at 2 µM; actives 0.9% (n = 130,000);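 active = inhibition above the mean plus 3 SD, with well images judged a real hit on visual review, cut at about 60% in these data, passing the limit was not always enough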
RGS16-Gao HTS: modulators of RGS16 binding to Galphao, primary screen, biochemical, human proteins, multiplexed bead flow cytometry | Regulator of G-protein signaling 16 (Homo sapiens) + Guanine nucleotide-binding protein … | bead-based flow cytometry RGS16-Galphao binding, fluorescence; actives lie on both sides | binding response (% of control), % at 10 µM | actives 0.38% (n = 220,000);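 active = below 25% or above 175%, edge rows of some plates excepted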;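 note: Galphao activated by GDP with aluminum fluoride before binding; 100% = wells without compound and 0% = beads without RGS; some results beyond the cut were filed as inactive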
Target sequence (O15492 whole entry, looked up): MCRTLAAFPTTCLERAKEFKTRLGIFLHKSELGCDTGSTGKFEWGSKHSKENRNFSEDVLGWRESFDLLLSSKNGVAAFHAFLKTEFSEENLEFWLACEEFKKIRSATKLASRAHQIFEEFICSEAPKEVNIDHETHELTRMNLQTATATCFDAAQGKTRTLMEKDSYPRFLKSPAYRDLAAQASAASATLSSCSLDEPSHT
Target sequence (P09471 whole entry, looked up): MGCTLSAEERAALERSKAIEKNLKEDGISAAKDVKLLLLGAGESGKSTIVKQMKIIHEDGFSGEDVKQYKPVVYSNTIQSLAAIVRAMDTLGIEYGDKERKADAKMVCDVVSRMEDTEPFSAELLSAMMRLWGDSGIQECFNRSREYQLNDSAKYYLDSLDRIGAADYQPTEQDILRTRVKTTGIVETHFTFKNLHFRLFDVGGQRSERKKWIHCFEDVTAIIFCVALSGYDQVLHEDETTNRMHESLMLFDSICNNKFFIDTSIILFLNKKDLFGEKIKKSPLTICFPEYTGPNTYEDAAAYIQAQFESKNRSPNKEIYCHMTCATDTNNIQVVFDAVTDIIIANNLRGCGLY
INS promoter inh cell count: recorded beside INS promoter inh, whose call it bears; normalized cell count, %; measured here: cell count, toxicity; reference of the scale not given here;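 cells exposed to compound for 48 h; stained nuclei by imaging scaled within each plate; lower means fewer cells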
HSV augment primary fold: further read-out of HSV augment, marked with its call; fold increase; compound at 10 µM; measured here: primary screen fold increase 10 uM; tested in PC3 cells;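 GFP signal in the first replicate; 1 = infected wells without compound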
Numbers without * were called inactive; i = inactive; / = no result given.

SMILES	PKD1 inh	GALR2 ag	HSV augment	HSV augment primary fold	INS promoter inh	INS promoter inh cell count	RGS16-Gao HTS
Cc1[nH]c2ccccc2c1/C=N\NC(=O)CNc1ccc2c(c1)OCO2	7	-1.6	i	0.95	-7	132	101
COc1ccc(C2C(C(=O)NCc3ccccn3)c3cc(OC)c(OC)cc3C(=O)N2C)cc1 (stereo not given)	10	-2.7	i	0.86	/	/	93
Cc1cccc(NS(=O)(=O)c2ccc3c(c2)NC(=O)CC(=O)N3)c1	-4	/	i	0.91	22	125	110
O=C(CN1CCN(C2CCCCC2)CC1)c1c[nH]c2ccccc12	1	3.9	i	1	5	72	95
COc1ccccc1N(CN1CCCC1=O)C(=O)c1c(F)cccc1Cl	-3	0.2	i	0.86	14	64	106
CCCN1C(=O)/C(=N\OCC(=O)NC23CC4CC(CC(C4)C2)C3)c2ccccc21	-16	-1.1	i	1.1	41	119	104
Cc1ccc(-c2nn(C)c(=O)c3ccccc23)cc1CNC(=O)CN1CCOCC1	0	-2.1	i	1	3	119	114
O=C1N(Cc2cccc(Cl)c2)C[C@@H]2C[C@@H](c3cccc4ncccc34)N3CCC[C@@]123	-6	/	i	0.91	15	129	116
COc1ccc(NS(=O)(=O)c2cc(NC(=O)c3cccs3)ccc2N2CCOCC2)cc1	0	/	i	0.93	/	/	100
CCCCS(=O)Cc1ccccc1 (stereo not given)	-3	-0.6	i	0.92	29	137	102
COc1ccccc1CNC(=O)C1CCC1	1	-1.2	i	1.1	35	59	96
CCOc1ccccc1N1CCN(Cc2cccc(OC)c2O)CC1	-7	-1.2	i	0.94	-20	125	103
Cc1ccc2nc(-c3ccc(NC(=S)NC4CC(C)(C)NC(C)(C)C4)cc3)sc2c1	-5	/	i	0.69	/	/	105
CN(C)c1nc(C=C(C#N)C#N)c(Cl)n1-c1ccc(F)cc1	-3	/	i	0.61	/	/	100
CCC(c1nnnn1Cc1ccco1)N1CCN(C(=O)c2ccco2)CC1 (stereo not given)	-1	-1.9	/	/	/	/	96

A different layout for part of the listing above:
Values run as follows: PKD1 inh | GALR2 ag | HSV augment | HSV augment primary fold | INS promoter inh | INS promoter inh cell count | RGS16-Gao HTS
O=C(CN1CCN(C2CCCCC2)CC1)c1c[nH]c2ccccc12
 : 1 | 3.9 | i | 1 | 5 | 72 | 95
COc1ccc(C2C(C(=O)NCc3ccccn3)c3cc(OC)c(OC)cc3C(=O)N2C)cc1 (stereo not given)
 : 10 | -2.7 | i | 0.86 | / | / | 93

(list continues)
SMILES	PKD1 inh	GALR2 ag	HSV augment	HSV augment primary fold	INS promoter inh	INS promoter inh cell count	RGS16-Gao HTS
Cc1ccc(-c2cc(C(=O)Nc3c(C#N)cnn3C)no2)cc1	1	-1.4	i	1.1	-27	193	104
CCc1nc2c(n1O)CCc1nonc1-2	-7	-0.4	i	0.93	16	93	102
CCN(CC)c1ccc(NC(=O)c2ccco2)c(C)c1	1	-2.1	i	0.9	-63	138	90
O=C1CC(c2ccco2)Cc2nc(Nc3nc(-c4ccccc4)c4ccccc4n3)ncc21 (stereo not given)	7	-0.3	/	/	-6	127	71
CC(C)CC(OC(=O)c1ccco1)C(=O)NC1CCCCC1 (stereo not given)	-9	-0.7	i	0.92	-45	57	98
C/C(CC(=O)NC12CC3CC(CC(C3)C1)C2)=N\NC(=O)Cc1cccs1	-5	0.3	i	0.98	/	/	95
CCc1cccc(CC)c1NC(=S)NCCc1ccc(O)c(O)c1	-6	/	i	0.83	-7	119	104
CC(C)C(NC(=S)Nc1ccccc1)C(=O)O (stereo not given)	-10	-1.1	i	0.95	-14	103	85
C=C(C)CSC1=C(C#N)C(c2ccsc2)CC(=O)N1 (stereo not given)	-9	-2.5	i	0.92	/	/	107
CCN1CCN(S(=O)(=O)c2cccc3nsnc23)CC1	-3	-4.1	i	0.89	50	59	101
O=C1CC(N2CCN(c3ccccc3)CC2)C(=O)N1Cc1ccc(Cl)cc1 (stereo not given)	-4	/	i	0.94	-70	101	101
CCOC(=O)c1nc(N2CCN(C(=O)OCC)CC2)c2c3c(sc2n1)CCCC3	-10	0.8	/	/	/	/	102
COC(=O)c1cc(NC(=O)C2CC=CCC2C(=O)O)cc(C(=O)OC)c1 (stereo not given)	-14	-1.8	i	0.93	27	101	99
COC(=O)c1c(C)oc(C)c1S(=O)(=O)NCC1CC1	/	/	i	1.1	/	/	94
c1ccc2c(c1)[nH]c1c(N3CCOCC3)ncnc12	-13	-2.1	i	0.91	/	/	98
CCN(CC)S(=O)(=O)c1ccc(NC(=O)COC(=O)CN2C(=O)c3ccccc3C2=O)cc1	0	-1.7	i	0.82	/	/	252
CCOC(=O)Cn1c2c(c(=N)c3ccccc31)CCC2	1	-1.6	i	1	-8	132	102
Cc1cc(C2C(C#N)=C(N)Oc3n[nH]c(C)c32)c(C)s1 (stereo not given)	-3	-1.8	i	0.96	-29	296	82
Cc1cc(C)cc(C(=O)NCC(=O)OCC(=O)c2cc(C)n(CC(F)(F)F)c2C)c1	1	-0.9	i	0.89	-14	128	104
CC1=CC(C)(C)N(C(=O)CNC2CCCCC2)c2cc(C)ccc21	1	/	i	0.91	/	/	97
Cc1ccc(-n2c(-c3ccco3)n[nH]c2=S)cc1	-1	/	i	1	/	/	94
O=C(NC(=S)NCCCN1CCOCC1)c1ccc([N+](=O)[O-])cc1	6	-0.4	i	0.89	/	/	99
CN(C)c1nc(Nc2ccc(Cl)cc2)nc(OCC#N)n1	-6	-2.5	i	0.78	22	115	96
Cc1nc2cc(-c3cccs3)[nH]n2c(=O)c1C	-7	-3.6	i	1	44	102	103
CCC(=O)Nc1ccc(Oc2ccc3c(c2)C(=O)NC3=O)cc1	-12	-0.1	i	1	-2	144	101
CCOc1ccc(CCNC(=O)CSc2cc(=O)n(C)c3cc(Cl)ccc23)cc1OCC	-4	-0.5	i	0.97	/	/	97
C(=N\Nc1nc(Nc2ccccc2)nc(N2CCCCC2)n1)/c1ccco1	-5	/	i	1	/	/	107
COc1cccc(OCC(=O)NNC(=S)Nc2ccc(Cl)cc2Cl)c1	-3	/	i	1.1	/	/	102
Cc1cccc(CSCCNC(=O)CCSc2ccccc2)c1	-7	-2.5	i	0.99	6	108	98
CCOC(=O)c1ccccc1NC1c2ccccc2C(=O)N1c1cc(C)ccn1 (stereo not given)	-18	-2.3	i	0.99	/	/	99
O=c1c2ccccc2nc2ccccn12	-1	/	i	1	41	94	84
O=C(CCCN1C(=O)c2ccccc2C1=O)N1CCC(c2ccccc2)C1 (stereo not given)	-14	-1.9	i	0.97	-16	147	72
O=[N+]([O-])c1ccc(/C=N/Nc2nc(-c3ccccc3)c3cc(Br)ccc3n2)o1	4	-0.7	/	/	19	160	100
COc1ccc(C2N=C(Nc3ccc(C)cc3)Nc3nc(C)cc(=O)n32)cc1 (stereo not given)	-7	0.5	i	0.86	/	/	98
C/C(=N\NC(=S)Nc1ccc(C)cc1)c1cccc(N)c1	4	/	i	1	/	/	102
CNC(=O)c1cc2ncc(C(F)(F)F)cc2s1	0	/	i	0.88	-38	69	99
NC(=O)NC(=O)COC(=O)CCCSc1nc2ccccc2s1	/	/	i	0.91	/	/	99
Cn1nnnc1SCC(=O)NCCc1ccc(Cl)cc1	-3	-1.7	i	0.96	/	/	104
Cc1ccc(OCc2nnc(SC(C)C(=O)O)n2Cc2ccccc2)cc1 (stereo not given)	3	/	i	0.97	/	/	112
CC(=O)Nc1ccc(NC(=O)c2ccccc2S(=O)(=O)c2ccccc2[N+](=O)[O-])cc1	2	-0.1	i	1	31	96	125
O=C1/C(=C\c2cccnc2)CN(Cc2ccccc2)C/C1=C\c1cccnc1	-7	-2.4	i	0.93	/	/	88
CCCC(=O)Nc1nc2nc(C)cc(=O)n2[nH]1	-9	-1.6	/	/	9	208	106
Cc1ccc(NC(=S)NNC(C)(C)C)cc1	/	/	i	1.1	/	/	100
Cc1ccc(OCC(=O)Nc2cccc3nsnc23)c(C)c1	-5	-2.7	i	0.97	0	94	92
CC(C)c1ccc(/C=N/NC(=O)c2c(Cl)cnn2C)cc1	7	-0.9	i	0.81	-30	98	85
Cc1cc2c(ncn2Cc2ccccc2)c([N+](=O)[O-])c1C	0	-0.6	i	0.98	/	/	97
Nc1ccc2c(c1)CCC2=O	-9	-1.7	i	1.2	-49	125	/
CC(C)COP(=O)(OCC(C)C)C(O)c1ccc(N(C)C)cc1 (stereo not given)	/	/	i	0.83	/	/	91
CC1CN(Cc2ccccc2)c2nc3c(c(=O)n(C)c(=O)n3C)n2C1 (stereo not given)	-16	-2.2	i	1	23	84	97
Cc1cccc(C(=O)O)c1NC(=O)c1ccc(F)cc1	-13	-1.3	i	0.87	44	97	102
Cc1cnc(NC(=O)C2CCCO2)s1 (stereo not given)	-1	-1.6	i	0.88	3	86	108
COc1cc(OC)cc(-c2nc3cc(C)ccc3o2)c1	1	-3.3	i	0.91	62	99	113
O=C(Cc1csc(N2CCOCC2)n1)N/N=C/c1ccccc1C(=O)O	/	/	i	0.95	/	/	100
CCSc1nnc2ccc(-c3cccs3)nn12	-2	/	i	0.9	-44	72	100
O=C(Nc1ccc(F)cc1)N1CCN(C/C=C/c2ccccc2)CC1	-2	-1.1	i	0.91	33	84	104
COC(=O)C1CCN(C(=O)c2sc3nc(-c4ccccc4)cn3c2C)CC1	1	-1.0	i	0.83	-21	157	99
Cc1ccc(OCCCCN2CCCCC2)c(Br)c1	0	-1.5	/	/	-31	79	133
Cc1nc2ccccc2c2nc3ccccc3n12	2	-3.2	i	0.77	-9	160	98
CCc1ccccc1NC1=NCC(=O)N1C1CCCC1	-9	/	i	1.1	/	/	100
Cc1cc(C(=O)OCC(=O)N2CCCC2)c2ccccc2n1	0	-1.2	i	0.87	34	126	104

Full records, looked up by structure. Screens in order: PKD1 inh, GALR2 ag, HSV augment, HSV augment primary fold, INS promoter inh, INS promoter inh cell count, RGS16-Gao HTS
Record of CCSc1nnc2ccc(-c3cccs3)nn12 : -2, /, i, 0.9, -44, 72, 100
Record of O=C(Cc1csc(N2CCOCC2)n1)N/N=C/c1ccccc1C(=O)O : /, /, i, 0.95, /, /, 100
Record of Cc1cnc(NC(=O)C2CCCO2)s1 (stereo not given) : -1, -1.6, i, 0.88, 3, 86, 108
Record of O=C(Nc1ccc(F)cc1)N1CCN(C/C=C/c2ccccc2)CC1 : -2, -1.1, i, 0.91, 33, 84, 104
Record of CC1CN(Cc2ccccc2)c2nc3c(c(=O)n(C)c(=O)n3C)n2C1 (stereo not given) : -16, -2.2, i, 1, 23, 84, 97

(continued)
SMILES	PKD1 inh	GALR2 ag	HSV augment	HSV augment primary fold	INS promoter inh	INS promoter inh cell count	RGS16-Gao HTS
Cc1cc(Cl)c(OCCCCNC(C)(C)C)c(Br)c1	-1	-0.2	i	1	-11	131	118
O=C(CNc1ccc(F)cc1F)NC(=O)NCc1ccco1	/	/	i	0.92	/	/	99
CN1CCC(OC(=O)COc2ccc(C(C)(C)C)cc2)CC1	-4	-1.5	/	/	-71	106	102
O=C(c1sc2cc(F)ccc2c1Cl)N1CCN(c2ccccc2)CC1	-3	0.1	i	0.95	20	64	60
COc1ccc(C2C3=C(CCCC3=O)Nc3nc(-c4cc(OC)c(OC)c(OC)c4)nn32)cc1OC (stereo not given)	4	-0.1	i	0.7	9	97	103
COc1ccc(N(Cc2cc3cccc(C)c3[nH]c2=O)S(C)(=O)=O)cc1	-3	-0.5	i	0.83	20	140	101
CCC(C(=O)OC)n1cnc2c(nnn2-c2cccc(Cl)c2)c1=O (stereo not given)	1	-2.3	i	0.98	/	/	103
COC(=O)c1ccc(CNC(=O)CSc2nc3sc(C)c(C)c3c(=O)n2C)o1	6	0.3	i	0.97	20	62	91
CC1Cc2ccccc2N1CC(=O)Nc1ccc(N2CCOCC2)cc1 (stereo not given)	-6	/	i	1.1	64	84	107
CN(C)c1cccc(C(=O)OCC(=O)NCc2ccco2)c1	1	-0.6	i	1	39	81	103
O=C(Nc1nc(-c2ccco2)c(-c2ccco2)s1)C1CCC1	6	-0.4	i	1.4	-28	72	97
Cc1cc(NC(=O)CSc2nnc(-c3c[nH]c4ccccc34)n2-c2ccc(F)cc2)no1	-1	/	i	0.9	/	/	101
Cc1cc(-c2nc(C)c(C(=O)NNS(=O)(=O)c3ccccc3)s2)no1	/	/	i	0.96	/	/	98

Reprinted from the results shown, two compounds:
SMILES	PKD1 inh	GALR2 ag	HSV augment	HSV augment primary fold	INS promoter inh	INS promoter inh cell count	RGS16-Gao HTS
Cc1cc(NC(=O)CSc2nnc(-c3c[nH]c4ccccc34)n2-c2ccc(F)cc2)no1	-1	/	i	0.9	/	/	101
Cc1cc(-c2nc(C)c(C(=O)NNS(=O)(=O)c3ccccc3)s2)no1	/	/	i	0.96	/	/	98
